Screening results: PubChem BioAssay, several laboratories
GPR55 antagonists: GPR55 antagonists blocking LPI-driven arrestin recruitment, primary screen, imaging, U2OS, beta-arrestin-GFP, LPI agonist (AID 2013); G-protein coupled receptor 55 (Homo sapiens); U2OS GPR55 beta-arrestin-GFP translocation imaging, LPI antagonism; higher % means a stronger effect; inhibition, % at 10 µM; hits with a dose series show IC50 in µM; 290,000 compounds, 0.13% hits;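 active means spots per cell inhibited over 60%, with over 100 cells counted and total cytoplasm intensity under 500,000; inconclusive means wells with under 100 cells, flagged as likely toxic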;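 further: U2OS cells stably carrying GPR55 and arrestin-GFP stimulated by 5 µM LPI near EC80; imaged beta-arrestin-GFP aggregate spots per cell after agonist stimulation; plate controls were LPI-stimulated DMSO wells for no effect and DMSO wells without LPI for full effect; some results filed as inactive read as strong as hits; confirmed hits need IC50 under 10 µM and bright autofluorescent wells are also inconclusive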
GPR35 antagonists: GPR35 antagonists blocking zaprinast-driven arrestin recruitment, primary screen, imaging, U2OS, beta-arrestin-GFP, zaprinast agonist (AID 2058). inhibition, % at 10 µM, or IC50 in µM where a hit was titrated. G-protein coupled receptor 35 (Homo sapiens). U2OS GPR35 beta-arrestin-GFP translocation imaging, zaprinast antagonism; higher % means a stronger effect. 290,000 compounds, 0.052% hits;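 active means inhibition of at least 50% with at least 30 cells and total cytoplasm GFP at most 10,000,000; inconclusive means under 30 cells or total GFP of 10,000,000 plus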
HIV peptide binding: inhibitors of HIV fusion peptide binding, primary screen, biochemical, uHTS, fluorescence dequenching (AID 1986); 290,000 compounds, 0.3% hits; cell-free peptide binding, fluorescence dequenching, 30 min; higher % means a stronger effect; inhibition, % at 20 µM; hits with a dose series show IC50 in µM; in the data active means inhibition mostly above about 52%, no sharp cut-off; inactive means mostly below about 76%; further: some results filed as inactive read as strong as hits
West Nile virus CPE: West Nile virus antiviral activity, cell-based, CPE readout (AID 1621); CPE inhibition, % at 10 µM, or IC50 in µM where a hit was titrated; West Nile virus-infected cells, CPE inhibition; higher % means a stronger effect; 290,000 compounds, 0.02% hits; in the data active means a potency from the dose series; inconclusive means CPE inhibition mostly from about 3.7% at the one dose, without a potency; inactive means the rest, 99 in 100 with CPE inhibition below about 2.2%; further: strong numbers were not always called active
KOR agonists: KOR agonists, beta-arrestin recruitment, primary screen, cell-based, luminescence, uHTS (AID 1777); activation, % at 10 µM; hits with a dose series show EC50 in µM; KOR beta-arrestin recruitment, luminescence; higher % means a stronger effect; Kappa-type opioid receptor (Homo sapiens); 280,000 compounds, 0.02% hits; in the data active means activation above about 50%, passing the limit was not always enough; further: a part of the inactive calls stands beside numbers as strong as those of hits
GPR55 beta-arrestin: GPR55 agonists via beta-arrestin recruitment, primary screen, imaging, U2OS cells, beta-arrestin-GFP redistribution (AID 1961); U2OS GPR55 beta-arrestin-GFP redistribution imaging; higher % means a stronger effect; one-dose activation, % at 10 µM; EC50 in µM for titrated hits; 290,000 compounds, 0.048% hits;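 active means activation above 40% with more than 50 cells counted in the well; inconclusive means wells holding fewer than 50 cells, flagged as toxic or sparse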;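 further: U2OS osteosarcoma cells stably expressing GPR55 and beta-arrestin-GFP; plate controls were DMSO negative control for no effect and LPI positive control for full effect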
Dengue-2 NS5 capping: Dengue-2 NS5 methyltransferase inhibitors, primary screen, biochemical, confirmation dose response (AID 588689). Genome polyprotein (Dengue virus type 2 (strain 16681-PDK53)). inhibition, % at 25 µM, or IC50 in µM where a hit was titrated. Dengue-2 NS5 methyltransferase capping enzyme assay, biochemical; higher % means a stronger effect. 340,000 compounds, 0.3% hits; in the data active means a potency from the dose series; inconclusive means inhibition above about 29% without an active follow-up result
The depositor's hits bear a star; ? = inconclusive; nt = no result given. Some of the compounds tested (hit frequency here may not be typical).

(1) CCOC(=O)c1cc2c(=O)n3cccc(C)c3nc2n(Cc2ccco2)c1=NC(=O)c1cccnc1
(2) N#CCO/N=C(\c1ccccc1)c1ccncc1
(3) CCOc1ccc(C(=O)CCNC(Cc2cnc[nH]2)C(=O)O)cc1 (stereo not drawn)
(4) Cc1ccc2c(c1)NC(=O)c1cccnc1N2
(5) Cc1ccc2oc(-c3ccc(C)c(NC(=O)Cc4cccs4)c3)nc2c1
(6) CC(=O)Nc1ccc(NCN2C(=O)[C@@H]3[C@H]4CC[C@H](C4)[C@@H]3C2=O)cc1
(7) COc1ccc(S(=O)(=O)N2CCCN(CC(=O)C(C)(C)C)CC2)cc1
(8) O=C(c1cccc(F)c1)N1CCC(O)(c2cccnc2)CC1

screen / no.	1	2	3	4	5	6	7	8
GPR55 antagonists	-1.5%	7.6%	1.4%	10.8%	8.6%	-6.3%	9.5%	11.1%
GPR35 antagonists	7.3%	4.6%	5.1%	-5.1%	20.3%	9.5%	15.2%	11.9%
HIV peptide binding	14.8%	-1.8%	3.0%	-1.0%	-1.7%	-0.6%	-0.7%	3.6%
West Nile virus CPE	0.1%	-0.2%	-0.1%	nt	nt	0.8%	nt	-0.5%
KOR agonists	6.1%	-2.4%	-2.5%	0.9%	-1.0%	1.8%	0.2%	0.4%
GPR55 beta-arrestin	-0.1%	0.0%	-0.1%	-0.1%	-0.1%	?	0.2%	-0.1%
Dengue-2 NS5 capping	21.1%	8.2%	-2.8%	-0.5%	-0.7%	0.6%	-4.8%	-11.5%

(9) COCCN1CSC(=S)N(Cc2ccco2)C1
(10) CCOC(=O)c1cc2c(=O)n3cccc(C)c3nc2n(CCCOC)c1=NC(=O)c1cccnc1
(11) Cc1ccc(SCC(=O)N2c3ccccc3Sc3ccccc32)cc1
(12) CCCCn1c(SCC(N)=O)nc2ccc(N3CCOCC3)cc2c1=O
(13) Cc1cc(=O)[nH]c(-n2nc(C)cc2C)n1

screen / no.	9	10	11	12	13
GPR55 antagonists	32.7%	-3.4%	21.3%	12.2%	9.5%
GPR35 antagonists	11.6%	11.9%	6.6%	6.3%	19.9%
HIV peptide binding	-0.3%	-1.4%	-0.2%	15.5%	-1.6%
West Nile virus CPE	0.3%	1.3%	-0.3%	0.7%	0.2%
KOR agonists	0.6%	-0.2%	7.2%	0.4%	0.8%
GPR55 beta-arrestin	-0.1%	-0.1%	0.0%	-0.1%	-0.1%
Dengue-2 NS5 capping	5.7%	8.6%	-2.1%	-2.3%	-3.8%

Rewritten in markdown: part of the list above
| cpd | Molecule | GPR55 antagonists | GPR35 antagonists | HIV peptide binding | West Nile virus CPE | KOR agonists | GPR55 beta-arrestin | Dengue-2 NS5 capping |
| --- | --- | --- | --- | --- | --- | --- | --- | --- |
| 1 | CCOC(=O)c1cc2c(=O)n3cccc(C)c3nc2n(Cc2ccco2)c1=NC(=O)c1cccnc1 | -1.5% | 7.3% | 14.8% | 0.1% | 6.1% | -0.1% | 21.1% |
| 2 | N#CCO/N=C(\c1ccccc1)c1ccncc1 | 7.6% | 4.6% | -1.8% | -0.2% | -2.4% | 0.0% | 8.2% |
| 3 | CCOc1ccc(C(=O)CCNC(Cc2cnc[nH]2)C(=O)O)cc1 (stereo not drawn) | 1.4% | 5.1% | 3.0% | -0.1% | -2.5% | -0.1% | -2.8% |
| 4 | Cc1ccc2c(c1)NC(=O)c1cccnc1N2 | 10.8% | -5.1% | -1.0% | nt | 0.9% | -0.1% | -0.5% |
| 5 | Cc1ccc2oc(-c3ccc(C)c(NC(=O)Cc4cccs4)c3)nc2c1 | 8.6% | 20.3% | -1.7% | nt | -1.0% | -0.1% | -0.7% |
| 6 | CC(=O)Nc1ccc(NCN2C(=O)[C@@H]3[C@H]4CC[C@H](C4)[C@@H]3C2=O)cc1 | -6.3% | 9.5% | -0.6% | 0.8% | 1.8% | ? | 0.6% |
| 7 | COc1ccc(S(=O)(=O)N2CCCN(CC(=O)C(C)(C)C)CC2)cc1 | 9.5% | 15.2% | -0.7% | nt | 0.2% | 0.2% | -4.8% |
| 8 | O=C(c1cccc(F)c1)N1CCC(O)(c2cccnc2)CC1 | 11.1% | 11.9% | 3.6% | -0.5% | 0.4% | -0.1% | -11.5% |
| 9 | COCCN1CSC(=S)N(Cc2ccco2)C1 | 32.7% | 11.6% | -0.3% | 0.3% | 0.6% | -0.1% | 5.7% |
